Screening results as filed in PubChem BioAssay.
KCNQ2 inh – KCNQ2 potassium channel inhibitors, primary screen, cell-based, CHO-K1, FluxOR thallium flux, B-score (AID 2156); Potassium voltage-gated channel subfamily KQT member 2 (Rattus norvegicus), O88943; 20 min; hits give low values; only compounds with negative scores are shown here; some inactives read as strong as hits; B-score at 10 µM; 1.1% of 310,000 active;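 active = fluorescence ratio B-score at most minus 3 library SDs, with starting brightness B-score within 2 library SDs, cut at about -5.5 in these data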
Target sequence (O88943 whole entry, looked up): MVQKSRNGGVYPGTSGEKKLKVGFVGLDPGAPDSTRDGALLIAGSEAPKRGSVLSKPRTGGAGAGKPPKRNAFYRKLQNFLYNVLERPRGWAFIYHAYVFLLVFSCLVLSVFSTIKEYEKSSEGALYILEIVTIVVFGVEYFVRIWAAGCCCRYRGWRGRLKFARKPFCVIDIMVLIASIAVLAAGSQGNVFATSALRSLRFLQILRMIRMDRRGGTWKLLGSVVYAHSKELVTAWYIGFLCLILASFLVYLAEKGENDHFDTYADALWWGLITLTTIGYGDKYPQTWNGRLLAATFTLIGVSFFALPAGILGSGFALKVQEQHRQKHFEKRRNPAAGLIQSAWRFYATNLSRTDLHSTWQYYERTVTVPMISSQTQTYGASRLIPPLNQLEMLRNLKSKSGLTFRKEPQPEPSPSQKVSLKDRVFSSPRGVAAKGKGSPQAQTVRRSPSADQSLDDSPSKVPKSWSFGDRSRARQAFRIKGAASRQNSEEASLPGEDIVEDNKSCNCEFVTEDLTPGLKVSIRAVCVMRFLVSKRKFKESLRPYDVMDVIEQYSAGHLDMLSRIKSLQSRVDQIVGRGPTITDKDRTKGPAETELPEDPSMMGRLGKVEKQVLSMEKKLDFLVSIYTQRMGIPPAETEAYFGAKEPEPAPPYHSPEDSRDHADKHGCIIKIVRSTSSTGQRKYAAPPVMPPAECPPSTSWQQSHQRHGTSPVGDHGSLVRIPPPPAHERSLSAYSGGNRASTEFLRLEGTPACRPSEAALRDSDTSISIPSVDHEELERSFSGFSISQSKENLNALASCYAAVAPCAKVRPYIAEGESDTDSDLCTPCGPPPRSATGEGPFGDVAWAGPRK
KCNQ2 inh baseline – further read-out of KCNQ2 inh, marked with its call; B-score; measured here: initial fluorescence intensity artifact check;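 brightness before thallium and not channel activity; 0 = typical well and far values either way flag optical interference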
* hit, by the source's call; i = inactive.

SMILES	KCNQ2 inh	KCNQ2 inh baseline
COc1ccc(C(=O)OCC(=O)c2c(N)n(C)c(=O)n(C)c2=O)cc1OC	i	0.97
CCn1c(SCC(=O)N2CCc3ccccc3C2)nc2sc(C)c(C)c2c1=O	i	-0.96
O=C1c2ccccc2CCCC12N=NCC2c1cccc2ccccc12 (stereo not given)	i	-2.4
COc1ccc(CCNC(=O)CSC(=O)c2ccccc2)cc1OC	i	1.4
CC(=O)c1c(C)[nH]c(C(=O)NCc2cccc(Cl)c2)c1C	i	1.8
COc1cccc(-c2csc(N3CCN(C(=O)C4CCCCC4)CC3)n2)c1	i	-0.12
CC1CC(C)CN(S(=O)(=O)c2ccc(C(=O)Nc3nnc(-c4cccs4)o3)cc2)C1 (stereo not given)	i	0.05
COc1ccccc1-c1cn[nH]c1-c1ccc(OCc2ccc(F)cc2)cc1O	i	-0.31
CCc1ccccc1NC(=O)CNC(=O)c1ccccc1OCc1c(C)noc1C	i	0.33
CCOC(=O)C(NC(C)=O)C(O)c1ccc([N+](=O)[O-])cc1 (stereo not given)	i	-1.9
Cc1cccc(Nc2nc(-c3ccc(O)c(O)c3)cs2)n1	i	0.99
O=C(NCC(c1ccco1)N1CCc2ccccc2C1)c1cccc(F)c1 (stereo not given)	-5.8*	0.23*
CC1CCCCC1NC(=O)C1CCN(S(=O)(=O)N2CCCCCC2)CC1 (stereo not given)	i	0.48
Cc1cc(S(=O)(=O)Nc2cccc([N+](=O)[O-])c2)c(C)s1	i	-0.55
Cc1cccc(OCc2nnc(SCC(=O)NCCc3ccccc3)o2)c1	i	0.18
Cc1ccc(S(=O)c2snnc2C)cc1 (stereo not given)	i	-0.2
O=C(Nc1cc(Cl)ccc1Cl)C1CC(=O)N(c2ccccc2)C1 (stereo not given)	i	-0.63
COCCCNC(=O)/C(=C\c1cccn1C)NC(=O)c1cccs1	i	1.8
CCCn1c(SCC(=O)NC)nc2sc3c(c2c1=O)CCC3	i	-1
Nc1c(C(=O)O)nnn1Cc1ccccc1	i	-0.11
C[C@@H](CN1C2=NC[C@H](Cc3ccccc3)N2C[C@H]1Cc1ccc(O)cc1)NC(=O)CCC1CCCCC1	i	1.4
C/C(=N\NC(=S)NCCc1ccccc1)c1cccc(Br)c1	i	-0.11
N#CC1(C#N)CC(C=O)=C(N)C1(C#N)CC(=O)c1ccc(F)cc1 (stereo not given)	i	3.3
CCN(CC)C(=O)C1CCN(S(=O)(=O)c2ccc3c(c2)CCCN3C(=O)C2CCC2)CC1	i	-2.8
CCOc1ccc2nc(NC(=O)CSc3cn[nH]n3)sc2c1	i	9.1
c1ccc(Cn2nnnc2C(c2ccccc2)N2CCN(c3nc4ccccc4s3)CC2)cc1 (stereo not given)	-7.9*	1.8*
Cc1oc(-c2cccs2)nc1CN1CCC(c2ccccc2)CC1	i	0.62
COc1cc(-c2noc(C)c2C#CC2(N)CCCCC2)cc(OC)c1OC	i	0.81
CCOC(=O)C(C)(C)N(Cc1cccc(C)c1)S(=O)(=O)c1ccc(Cl)c([N+](=O)[O-])c1	i	-0.19
CCCCN(C(=O)CN1C(=O)C2CCCCC2C1=O)c1c(N)n(CCC)c(=O)[nH]c1=O (stereo not given)	i	-2.7
O=C1c2ccccc2C(=O)N1CCCCN(C(=O)c1ccc([N+](=O)[O-])cc1)c1ccc(Cl)cc1	i	0.36
CC(C)c1ccc(NC(=O)CSc2nc(=O)n(CCCN3CCOCC3)c3c2CCC3)cc1	i	0.83
CC1CCN(CCCCOc2ccc(C(=O)c3ccccc3)cc2)CC1	i	1.8
O=C(O)c1cccnc1SCc1cn2cc(Cl)ccc2n1	i	-3.9
CCOC(=O)c1c(NC(C)=O)sc2c(O)cccc12	i	0.15
CC(C)(C)c1ccc(-c2n[nH]c(=S)n2Cc2ccccc2)cc1	i	-0.02
CCOC(=O)c1nn(-c2ccccc2)c2nnc(Cc3ccccc3)c(=O)n12	i	-1.1
Cc1cc(NS(=O)(=O)c2ccc(NC(=O)c3ccc([N+](=O)[O-])c(Cl)c3)cc2)no1	i	0.96
COC(=O)C1=CN(c2cc(C)cc(C)c2)C=C(C(=O)OC)C1c1ccc(OC)c(O)c1	i	-1.6
O=C(c1ccc(F)cc1)N1CCN(c2ccc([N+](=O)[O-])c(N3CCCCC3)c2)CC1	i	0.24
COc1ccc(C(C#N)N2N=C(c3ccccc3)CC2c2ccccc2)cc1OC (stereo not given)	i	0.74
COc1cc(OC)c(/C=N/NC(=O)c2ccncc2)c(OC)c1	i	1.2
CCSc1nnc(NC(=O)c2cccc(S(=O)(=O)N(C)c3ccccc3)c2)s1	i	-0.16
CCCC(C1=C(O)CC(C)(C)CC1=O)C1C(=O)CC(C)(C)CC1=O (stereo not given)	i	2
COC(=O)c1ccc2c(c1)N(C)C(=O)CS2	i	0.77
CCOc1ccc2[nH]c(=O)c(CN(Cc3cccs3)Cc3nnnn3C(C)(C)CC)cc2c1	i	-0.84
CCc1c(C)nc(SCc2ccccn2)[nH]c1=O	i	-0.62
O=C(Nc1ccc(Nc2ccccc2)cc1)c1c(F)c(F)c(F)c(F)c1F	i	-1.4
COC(=O)/C=C1/S/C(=N/NC(=O)c2ccc(OC)cc2)NC1=O	i	-0.15
N#C/C(=C/c1ccc(N2CCCCC2)o1)C(=O)Nc1ccc(Cl)cc1	i	0.18
O=C(COc1ccc(C(=O)NCC2CCCO2)cc1)Nc1cccc(C(F)(F)F)c1 (stereo not given)	i	-2.2
Cc1noc2ncnc(Sc3c(Cl)cccc3Cl)c12	i	-0.13
COc1ccc(CN2CC(C(=O)NCc3ccccn3)CC2=O)cc1 (stereo not given)	i	-0.5
COc1ccccc1CN(C)C(=O)CN1C(=O)c2ccccc2C1=O	i	-0.81
CC(C)c1nnc(SCC(=O)Nc2ccc3c(c2)OCO3)n1C	i	-0.2
O=C(Cn1cnc2ccccc2c1=O)c1ccc2ccccc2c1	i	1.6
Cc1ccc(S(=O)(=O)N(C)C)cc1NC(=O)COC(=O)Cc1ccsc1	i	-0.04
Cc1ccc(-c2nn(C)c(=O)c3ccccc23)cc1CNC(=O)c1ccccc1	i	1.6
Cc1nc(-c2noc(-c3cccc(Cl)c3)n2)c(C(F)(F)F)o1	i	1.5
c1cc2c(cc1C1=Nn3c(nnc3C3CCCCC3)SC1)OCO2	i	-0.23
(cont.)
SMILES	KCNQ2 inh	KCNQ2 inh baseline
O=C(NCCCN1CCOCC1)c1ccccc1N1C(=O)[C@@H]2Cc3c([nH]c4ccccc34)C(c3cccc(Cl)c3)N2C1=O (stereo not given in full)	-5.6*	-0.05*
O=C(c1ccccc1Cc1ccccc1)N1CCN(S(=O)(=O)c2ccccc2Br)CC1	i	1.1
Cc1n[nH]c(C)c1S(=O)(=O)N1CCCC(C(=O)Nc2ccc(Br)cc2)C1 (stereo not given)	i	0.22
CSc1nnc(NC(=O)c2ccc(C)c(S(=O)(=O)N3CCOCC3)c2)s1	i	0.5
CC1=NN(C(N)=S)C(=O)C1N=Nc1cccc2ccccc12 (stereo not given)	i	-1.1
O=C(CN1CCCCCCC1)Nc1cccc(Cl)c1Cl	i	1.4
Cc1nnc(NN2CCOCC2)[nH]c1=O	i	10
Cc1cccc(Cn2cnc3c(NS(C)(=O)=O)c(C)c(C)cc32)c1	i	1.2
Cc1ccsc1C(=O)Nc1cc(C(C)(C)C)nn1-c1ccccc1	i	-0.67
N#Cc1nc(-c2cccs2)oc1NCc1ccccc1Cl	i	-0.21
COc1ccc(C(O)Cn2ccsc2=NC(C)=O)cc1 (stereo not given)	i	-0.52
Cc1ccc(NC(=O)CN2CCCC2)cc1Br	i	-0.8
Cc1ccccc1NC(=O)c1cc(S(=O)(=O)N2CCOCC2)cn1C	i	0.43
COc1cccc(-n2c(SCC(=O)NC(C)(C)C)nnc2-c2ccoc2C)c1	i	-2.3
CCCCOc1cc(C)nc(NCc2ccccc2)n1	i	1.1
COc1ccc2c(CC(=O)N[C@@H](Cc3c[nH]c4ccccc34)C(=O)O)cc(=O)oc2c1	i	1.6
C[C@H](NC(CCc1ccccc1)C(=O)O)C(=O)N1CCC[C@H]1C(=O)O (stereo not given in full)	i	-1.2
CCC(C)[C@H](NC(=O)Nc1ccc(S(N)(=O)=O)cc1)C(=O)O (stereo not given in full)	i	-0.53
COc1ccccc1C(=O)NCC(=O)NC(C)CCc1ccccc1 (stereo not given)	i	-0.14
Cc1cccc(C)c1N=C1NN=C(c2ccccc2F)CS1	i	-0.65
CCN(CC)Cc1c(O)ccc2c1O/C(=C\C=C\c1ccccc1)C2=O	i	13
O=C(Nc1cccnc1)C1OCCc2ccccc21 (stereo not given)	i	-0.19
O=C(OCc1ccccc1)N1CCOCCN(C(=O)OCc2ccccc2)CCOCC1	i	-0.08
COc1cc(CNc2nnnn2C)ccc1OCc1ccc(F)cc1Cl	i	-1.1

Some of the entries above, set out differently:
CCN(CC)Cc1c(O)ccc2c1O/C(=C\C=C\c1ccccc1)C2=O
- KCNQ2 inh: i
- KCNQ2 inh baseline: 13
COc1ccc(C(=O)OCC(=O)c2c(N)n(C)c(=O)n(C)c2=O)cc1OC
- KCNQ2 inh: i
- KCNQ2 inh baseline: 0.97

Carrying on.
SMILES	KCNQ2 inh	KCNQ2 inh baseline
CC1=C(C(=O)Nc2ccccc2)C(c2coc3ccccc3c2=O)C2=C(CCCC2=O)N1 (stereo not given)	i	-0.27
O=C(Nc1cc(S(=O)(=O)N2CCCCC2)ccc1Cl)c1ccccc1NS(=O)(=O)c1ccc(F)cc1	i	-1.3
O=C(Cn1cc(C(F)(F)F)ccc1=O)NCc1ccc(F)cc1	i	-0.62
COCCN(C(=O)CCC(=O)Nc1nccs1)C(C(=O)NC(C)(C)C)c1ccc(Cl)cc1 (stereo not given)	i	-1.4
O=c1cc(CSc2ccc(Cl)cc2)nc2nc[nH]n12	i	0.11
Cc1cccc(C)c1NC(=O)NC1(C(=O)N2CCCC2)CCCCC1	i	0.82
CCN1CCN(c2ccc(NC(=O)CCc3c(C)nc4c(-c5ccccc5)c(C)nn4c3C)cc2)CC1	i	-0.09
N/C(Cc1ccc([N+](=O)[O-])cc1)=N\OC(=O)COc1cccc2ccccc12	i	1.5
COc1ccccc1N1CCN(C(=O)c2cn(-c3ccccc3)nc2-c2cccnc2)CC1	i	-0.22
Cc1nc(-c2ccccc2)sc1C(=O)CSc1ccc(Br)cc1	i	0.03
Cc1nn(-c2ccccc2)c(C)c1C(=O)OC/C(O)=C(\C#N)c1nc2ccccc2[nH]1	i	1.6
COc1cccc(N2CCN(S(=O)(=O)c3cn(C)cn3)CC2)c1	i	0.09
O=C(CCC(=O)c1cccs1)NCc1cccc(C(F)(F)F)c1	-6.4*	1.2*
CN(C)c1ccc(/C=C2\C(=N)N3N=C(CC(=O)N4CCCC4)SC3=NC2=O)cc1Br	i	0.43
CC(NCc1cc(Br)ccc1OCC(=O)NCc1ccccc1)c1ccccc1 (stereo not given)	i	-2.2
Cc1csc(NC(=O)c2sc3nc(-c4cccs4)ccc3c2N)n1	i	8.7
COc1ccc(N2CCN(C(=O)COC(=O)CCOc3ccc(C(C)(C)C)cc3)CC2)cc1	i	2.1
CCOc1ccc(N(CC(=O)NCC(C)C)S(C)(=O)=O)cc1	i	-2.2
N#C/C(=C\c1c(F)cccc1Cl)C(=O)NC1CC1	i	-0.7
CCOC(=O)N1CCN(C(=O)/C=C/c2ccc([N+](=O)[O-])cc2)CC1	i	0.76
O=C(N/N=C/c1ccc([N+](=O)[O-])o1)c1cn2ccc3ccccc3c2n1	i	2.1
O=C(CN(Cc1ccc(F)cc1)C(=O)c1ccco1)NCc1ccc(F)cc1	i	2.2
COc1ccccc1NC(=O)NC1(C(=O)N2CCN(C)CC2)CCCCC1	i	0.7
COc1ccc(N2CCCn3c2nc2c3c(=O)n(Cc3ccc(C)cc3)c(=O)n2C)c(OC)c1	i	1.1
CCC(C)(C(=O)NC1CCCCC1)N(Cc1ccco1)C(=O)CNC(=O)c1ccccc1 (stereo not given)	i	-0.37
O=C(CCS(=O)(=O)c1cccc2nsnc12)NCc1ccccc1Cl	i	1.9
O=C(Nc1ccc2c(c1)OCCO2)C1CCCN1C(=O)Nc1ccc(F)cc1 (stereo not given)	i	0.33
CC(C)(O)C1Cc2cc(/C=C/C(=O)O)c(O)cc2O1 (stereo not given)	i	-1.4
CCN(Cc1cnn(C)c1)Cc1nc(C2(c3ccc(C)cc3)CCCC2)no1	i	3.9
CC(C)(C)c1cc(NC(=O)COc2ccc(Br)cc2)n(-c2ccccc2)n1	i	-1.6
COC(=O)c1nc2nc(C)cc(C(F)(F)F)n2n1	i	1.3
Clc1ccc(-c2cc(CSc3cccc(Cl)c3)on2)cc1	i	-0.01
CN(C)CCNC(=O)/C=N/O	i	2.6
CCCCOC(=O)C1=C(C)NC(=O)NC1c1ccc(N(C)C)cc1 (stereo not given)	i	-0.58
CCn1c(O)c(/C=C2\C=NN=C2c2ccc(C)cc2)sc1=S	i	-1.1

Filtered by structure, the entries above with a thiophene ring, fused or not.
SMILES	KCNQ2 inh	KCNQ2 inh baseline
CCn1c(SCC(=O)N2CCc3ccccc3C2)nc2sc(C)c(C)c2c1=O	i	-0.96
CC1CC(C)CN(S(=O)(=O)c2ccc(C(=O)Nc3nnc(-c4cccs4)o3)cc2)C1 (stereo not given)	i	0.05
Cc1cc(S(=O)(=O)Nc2cccc([N+](=O)[O-])c2)c(C)s1	i	-0.55
COCCCNC(=O)/C(=C\c1cccn1C)NC(=O)c1cccs1	i	1.8
CCCn1c(SCC(=O)NC)nc2sc3c(c2c1=O)CCC3	i	-1
Cc1oc(-c2cccs2)nc1CN1CCC(c2ccccc2)CC1	i	0.62
CCOC(=O)c1c(NC(C)=O)sc2c(O)cccc12	i	0.15
CCOc1ccc2[nH]c(=O)c(CN(Cc3cccs3)Cc3nnnn3C(C)(C)CC)cc2c1	i	-0.84
Cc1ccc(S(=O)(=O)N(C)C)cc1NC(=O)COC(=O)Cc1ccsc1	i	-0.04
Cc1ccsc1C(=O)Nc1cc(C(C)(C)C)nn1-c1ccccc1	i	-0.67
N#Cc1nc(-c2cccs2)oc1NCc1ccccc1Cl	i	-0.21
O=C(CCC(=O)c1cccs1)NCc1cccc(C(F)(F)F)c1	-6.4*	1.2*
Cc1csc(NC(=O)c2sc3nc(-c4cccs4)ccc3c2N)n1	i	8.7

This is a subset; count on the stated rates, not on these rows.
